Screening data deposited in PubChem by National Center for Advancing Translational Sciences (NCATS).
TRPV1 PAM – human TRPV1 potentiation | AID 540277 | hit rate 0.02% among 320,000 | TRPV1-expressing cells, Fluo-8 calcium influx, capsaicin EC20 potentiation; host cell line not named in the record; control for the full effect not named in the record | Q8NER1 | potentiation, % at 8.33 µM; active means potentiation above 80%; inconclusive means 30% to 80%; inactive means below 30%; note: 0% is about no effect
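Cells expressing TRPV1 were dye-loaded with Fluo-8 and read kinetically: 10 s baseline, 3 min after compound (agonist portion), then 2 min after EC20 capsaicin (allosteric enhancer portion). Calcium-bound dye fluorescence at 480/520 nm.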
TRPML1 blocker – blocks the human TRPML1 channel; AID 624415; activity change, negative = inhibition, % (no concentration beside the values); Q9GZU1; hit rate 0.02% among 390,000; TRPML1-inducible cells, Ca2+ dye fluorescence, FDSS; active compounds read low; inhibition of EC80 agonist-evoked calcium signal; in the data active means activity change below about -50%; inconclusive means about -30% to -50%; inactive means above about -30%;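 note: stimulus is agonist 54-4 at its EC80 concentration; % is set by controls: 0 for no effect and ±100 for the full control effect; compound concentration not given in the record; the text of the record puts the active cut at -80%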
Target sequence (Q9GZU1 whole entry, looked up): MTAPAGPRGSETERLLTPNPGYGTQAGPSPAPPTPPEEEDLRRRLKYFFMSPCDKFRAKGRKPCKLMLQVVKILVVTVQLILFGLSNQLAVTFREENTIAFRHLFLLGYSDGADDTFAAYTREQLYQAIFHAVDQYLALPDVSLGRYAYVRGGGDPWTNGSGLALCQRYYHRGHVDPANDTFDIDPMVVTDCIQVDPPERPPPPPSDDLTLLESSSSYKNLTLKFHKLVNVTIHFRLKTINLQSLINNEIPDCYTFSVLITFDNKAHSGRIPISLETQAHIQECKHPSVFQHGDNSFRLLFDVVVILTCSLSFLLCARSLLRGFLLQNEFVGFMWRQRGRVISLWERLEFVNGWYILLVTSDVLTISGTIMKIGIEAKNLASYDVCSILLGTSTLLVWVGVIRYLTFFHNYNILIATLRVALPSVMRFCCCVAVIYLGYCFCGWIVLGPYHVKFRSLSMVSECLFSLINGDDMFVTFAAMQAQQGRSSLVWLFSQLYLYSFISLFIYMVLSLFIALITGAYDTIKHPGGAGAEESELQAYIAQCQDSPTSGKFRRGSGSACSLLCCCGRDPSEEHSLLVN
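TRPML1-DL cells, Tet-induced overnight (~16 h, 37 °C) at 1,500 cells/well, were loaded with Ca8 no-wash dye plus quencher for 45-90 min at room temperature. Compounds were pinned during FDSS kinetic reading; agonist 54-4 at EC80 (4 uM final) then added.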
Sfp inh – inhibitors of Bacillus subtilis Sfp phosphopantetheinyl transferase; Biochemical Sfp PPTase activity, qHTS; AID 1490; hit rate 3.5% among 310,000; Potency, µM, inactives show max response, negative = inhibition, actives largely listed as inhibitors; Q9F4F7; active = well fitted inhibition curve with a large enough effect; inconclusive = small, poorly fitted or top-dose-only effect, or another doubt; inactive = no such curve, though single readings can be large or run the other way;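 note: the enzyme is Sfp with the accession as filed and its product quenches rhodamine fluorescence; potency is the fitted concentration of half-maximal effect; 0% = enzyme reaction without inhibitor and -100% = no enzyme wells; top concentration of the series not given in the record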
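Reaction rates are the 30-min fluorescence difference (ex 525, em 598 nm) in wells containing 15 nM Sfp, 5 uM rhodamine-CoA and 12.5 uM BHQ-2-YbbR at pH 7.6 with 10 mM MgCl2.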
ClpP mod – qHTS Assay for Activators of ClpP. purified B. subtilis ClpP, FRET peptide cleavage, 20 min. Potency, µM (highest dose often 57.5 µM), inactives show at the highest dose activity change, negative = active. hit rate 1.9% among 340,000; active = well fitted falling curve with a large enough effect; inconclusive = small, poorly fitted or top-dose-only effect; inactive = no such curve, though single readings can be large or run the other way; note: potency is the fitted concentration of half-maximal effect; the source files actives as falling curves though it sought activators and does not explain the sign; nearly all actives have a fitted effect of over 65% in size; many hits overshoot -100%
Target sequence (P80244 whole entry, looked up): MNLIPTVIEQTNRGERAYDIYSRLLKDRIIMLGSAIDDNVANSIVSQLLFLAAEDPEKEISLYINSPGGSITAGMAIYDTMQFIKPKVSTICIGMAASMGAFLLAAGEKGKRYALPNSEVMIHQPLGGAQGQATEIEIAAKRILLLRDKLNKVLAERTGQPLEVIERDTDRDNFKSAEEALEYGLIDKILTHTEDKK
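FRET quenching reversal measured ClpP activation: 10 microg/mL B. subtilis ClpP at pH 8 with the FRET-FV decapeptide, read at 430 nm after 320 nm excitation. The 20-min minus 0-min signal was scaled between DMSO/no-enzyme wells and ADEP (5.8 microM final).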
Menin-MLL FL inh – displaces fluorescein MLL peptide from human menin; FP activity change, % at 61.4 µM; AID 1766; Fluorescence polarization, fluorescein-MLL peptide displacement from menin; 290,000 tested, under 10 active; inconclusive = falling polarisation curve, or a change in total fluorescence; inactive = total fluorescence flat and polarisation flat or rising; no compound was filed as active; the % refers to the polarisation; negative = inhibition;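 note: % of control where 0% means no effect; inhibitors lower the polarisation; unlabelled MLL peptide was the positive control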
TRPML1 agonist – activates the human TRPML1 channel; TRPML1-expressing cells, Ca2+ dye fluorescence, FDSS; host cell line not named in the record; reference of the full effect not given here; activation, % (concentration not given with the values); hit rate 0.12% among 410,000; AID 624414; in the data active = activation above about 50%; inconclusive = about 30% to 50%; inactive = below about 30%; note: 0% is about no effect; the text of the record puts the active cut at 80%
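Calcium fluorescence on an FDSS kinetic reader gave the read-out. Tet-induced TRPML1-DL cells were plated overnight, dye-loaded (Ca8 with quencher, 45-90 min, room temperature, dark), then read 110 s after compound addition, and again 110 s after 4uM final 54-4 (EC80).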
PINK1 expr mod – changes PINK1 expression | PINK1 immunofluorescence, high-content cytometry, 24 h | Potency, µM (titrated, usually from 76.6 µM), without a hit: at the top dose activation (PINK1 increase), actives largely listed as activators | hit rate 0.2% among 410,000 | AID 624263; active = well fitted activation curve with a large enough effect; inconclusive = small, poorly fitted or top-dose-only effect; inactive = flat fitted curve, though single readings scatter; cell line not stated here;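 note: potency is the fitted concentration of half-maximal effect; % of control where 0% means no effect; nearly all actives have a fitted effect of over 65% in size; a mitochondrial uncoupler was the plate control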
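Stable cell line treated 24 h with compounds at 5 concentrations (CCCP controls), then fixed and immunostained for PINK1 plus nuclear and cell stains; PINK1 immunofluorescence quantified by laser-scanning microplate cytometry.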
The depositor's hits bear a star; ? = inconclusive; . = not tested or not shown; & = joins results of further samples; [ ] = another dose, or the depositor's remark.

SMILES	TRPV1 PAM	TRPML1 blocker	Sfp inh	ClpP mod	Menin-MLL FL inh	TRPML1 agonist	PINK1 expr mod
Cc1cc([N+](=O)[O-])c2c(c1C)C1C=CCC1C(c1ccccn1)N2 (centres undefined)	-6.1	.	?	.	1.4	.	.
Cc1ccc(S(=O)(=O)N2CCN(C3CC(=O)N(CCc4ccccc4)C3=O)CC2)cc1C (centres undefined)	-5.8	17.6	-9.0%	2.0%	0.0	0.5	14.7%[38.3 µM]
CCCSc1ncc(Cl)c(C(=O)Nc2c(C(=O)c3ccc(C)cc3)oc3ccccc23)n1	.	-4.3	.	-0.1%	.	-0.4	0.7%
CC(=O)Nc1ccc(-c2ccnc3c2CC(C)(C(=O)Nc2ccc(Cl)c(C(F)(F)F)c2)O3)cc1 (centres undefined)	.	.	.	5.1%	.	-0.3	1.5%
OCCNc1nc(Nc2ccc(Cl)c(Cl)c2)nc2ccccc12	12.6	32.2	79.4µM*	3.5%	9.8	1.0	-2.5%
O=C(CSc1cccc[n+]1[O-])Nc1cc2c(cc1Cl)C(=O)c1ccccc1C2=O	4.3	-2.3	?	4.2%	6.6	-0.1	2.3%
CC(C)N(C(=O)CSc1ccc(S(=O)(=O)N2CCCCC2)cn1)c1ccccc1	1.9	9.1	.	0.2%	.	1.1	-1.5%
COc1cccc(CN2CC(C(=O)N3CCCCCC3)CCC2=O)c1 (centres undefined)	-11.1	-1.0	23.9%	0.7%	.	0.5	3.1%
O=C(Nc1ccc(S(=O)(=O)Nc2ncccn2)cc1)c1cccc(S(=O)(=O)N2CCCC2)c1	-9.5	7.3	-5.0%	.	3.5	0.5	0.4%
COc1ccc2c(c1)c(C(O)CN1CCC(Cc3ccccc3)CC1)c(C)n2C (centres undefined)	-5.8	36.7	3.1%	1.0%	2.5	0.2	4.1%
CC(=O)NCCNc1nc2cc(-c3ccc(C(=O)N4CCN(C)CC4)cc3)sc2c(=O)n1C	.	-14.3	.	5.1%	.	0.8	-0.6%
CCOC(=O)C1CCCN(C(=O)c2cccc(S(=O)(=O)NCc3ccccc3)c2)C1 (centres undefined)	.	-1.3	.	-1.1%	.	-0.7	-1.0%
Cc1cc(NCc2ccc(F)cc2)nc2cc(Cl)ccc12	16.5	4.3	2.3%	-18.1%	2.3	-0.7	4.5%
COC(=O)CCC(=O)OC1(C)C(=O)C=C2C=C(C3CC3)N(c3cccc(C#N)c3)C=C2C1=O (centres undefined)	?	-11.1	-24.0%&-14.5%	-8.1%	?	0.3	1.2%
COc1ccc(NC(=O)NCCN2CCN(c3cccc(Cl)c3)CC2)cc1	-24.5	-0.9	?	-0.9%	0.2	-0.9	3.6%
CCOC(=O)C1=C(COC(=O)CNS(=O)(=O)c2ccc(C)c(C)c2)NC(=O)NC1C (centres undefined)	.	6.5	.	-1.0%	.	-0.5	0.9%
O=C(Nc1ccccn1)c1cc2ccccc2o1	-16.6	-4.6	12.6%	-0.1%	-1.7	0.1	0.6%[38.3 µM]
COC(=O)c1ccc(C2SCC(=O)N2Cc2ccccc2)cc1 (centres undefined)	9.8	-6.7	16.0%	0.5%	-2.5	0.0	0.7%
C#CCNC(=O)C1=C[C@@H](c2ccc(Br)cc2)[C@H](CCCO)[C@@H](OCC)O1	13.2	-2.7	1.0%	-2.3%	-3.3	0.8	-0.6%
CC(C)c1onc(C(=O)N2CCOCC2)c1[N+](=O)[O-]	-3.6	-15.9	3.4%	.	3.1	-0.1	-2.1%
O=C(O)CSCc1ccc(Cl)cc1	3.1	-10.3	8.2%	-2.2%	-0.4	-0.9	0.7%
COCCN(C(=O)CC(C)(C)C)c1nnc(-c2cccnc2)s1	3.8	17.0	11.1%	-12.1%	2.8	5.7	-1.5%
CCCN(Cc1nnc(-c2cccs2)o1)C(=O)CN1C(=O)NC2(CCC(C)CC2)C1=O (centres undefined)	-8.6	-12.8	.	1.6%	.	-0.6	0.4%
CCOC(=O)c1cccc(NC(=O)CSc2nnc(C3CCCCC3)n2CC)c1	27.2	38.5	-20.8%	-3.2%	-1.5	2.8	-1.9%
O=C(Nc1ccccc1OC(F)F)c1ccccc1	5.9	20.7	19.1%	-3.1%	2.5	1.9	?
Continued:
SMILES	TRPV1 PAM	TRPML1 blocker	Sfp inh	ClpP mod	Menin-MLL FL inh	TRPML1 agonist	PINK1 expr mod
O=C(Oc1cccc(NC(=O)c2ccco2)c1)c1cccc(S(=O)(=O)N2CCCC2)c1	-13.5	-6.5	23.2%	-10.5%	3.6	2.9	1.1%
FC(F)(F)c1nnc(-c2ccccc2)nc1Oc1ccccc1	-0.5	-4.1	16.2%	-2.3%	0.0	-0.1	-2.3%
COc1ccc(O)c(CN2CCCC(C(=O)Nc3cccc(-n4cccn4)c3)C2)c1 (centres undefined)	-5.1	-9.8	9.2%	-2.0%	.	0.2	3.9%
O=C(NNS(=O)(=O)c1ccc(Cl)cc1)C1CCN(Cc2ccccc2)CC1	2.0	-11.2	-17.3%	-0.1%	2.6	0.6	-2.2%
S=C(NCCCN1CCOCC1)N1CCN(c2nc(-c3ccc(Cl)cc3)cs2)CC1	4.4	1.7	21.4%	-0.5%	-4.2	-0.3	1.8%
CCN(CC)c1ccc(NC(=O)CCS(=O)(=O)c2cc3c(cc2Cl)NC(=O)CO3)c(C)c1	.	9.0	.	-0.1%	.	1.2	0.3%
CC1(C(=O)NS(=O)(=O)C2CC2)CCN(C(=O)c2ccccc2C(F)(F)F)C1 (centres undefined)	.	.	.	-2.4%	.	-0.3	0.9%
COc1ccc(C(=O)N2c3ccc(F)cc3CCC2C)cc1OC (centres undefined)	3.4	3.2	7.2%	-13.0%	1.4	-1.0	0.0%
FC(F)(F)c1ccccc1Cc1c(C2CCCCC2)nc2ccc(Cl)cn12	.	.	.	?	.	0.1	24.5%
Cc1cccc(C(=O)OCC(=O)c2c(C)[nH]c3ccccc23)c1O	4.6	-5.9	.	-5.1%	.	1.2	3.8%
Oc1cccc(CN2CCOCC2)c1O	.	11.4	.	34.4%	.	-0.3	-3.4%
CCOC(=O)NCc1ccc2c(c1)OCO2	-15.1	-8.6	3.1%	1.0%	1.0	1.0	-2.1%
Cn1c(=O)c2c(n(Cc3ccccc3)c1=O)NC(=O)C2CC(=O)N1CCc2ccccc2C1 (centres undefined)	29.1	-7.0	?	-5.2%	2.5	-0.3	1.9%
COc1ccc(-c2[nH]nc3oc(=O)cc(C)c23)cc1	10.2	5.9	-2.9%	?	-1.9	-0.8	-0.5%
Cc1ccsc1/C=C(\C#N)C(=O)Nc1c(C)n(C)n(-c2ccccc2)c1=O	14.6	-6.2	-30.0%	-1.0%	-1.8	-0.4	0.3%
N/C(=N\OC(=O)COc1ccccc1)c1ccccn1	3.0	-12.9	11.8%	-2.1%	-0.5	0.5	0.4%
CNc1cnc(-c2ccc(F)c(F)c2F)cn1	.	.	.	4.7%	.	0.0	4.9%
CCOc1ccc(-c2nc(Cn3c(=O)cc(-c4ccccc4)c4c(C)nn(C)c43)c(C)o2)cc1OC	.	9.3	.	-10.8%	.	0.2	1.9%
Cc1cc2c(c(=O)n1CCN(C)C)C(c1ccc(Cl)cc1)C(C#N)=C(N)O2 (centres undefined)	2.0	-2.3	7.8%	-0.2%	4.2	0.0	3.1%[38.3 µM]
Clc1ccc(CNc2cnccn2)cc1	0.0	-11.2	17.0%	.	-2.5	0.2	0.2%
O=C(NCc1ccccn1)NC1CCCCC1	24.2	0.1	3.3%	-1.4%	-1.4	1.1	-0.3%
CCc1ccc(NC(=O)Cc2cn(C)c3ccccc23)cc1	3.5	-7.8	-2.6%	2.3%	-6.6	2.5	0.1%
COc1ccccc1NCCC(=O)OCC(=O)NCc1ccco1	-3.0	4.6	-8.7%	-1.3%	5.0	-0.1	0.5%
COCCNc1c(-c2ccc(OC)cc2)nc2ccc(Cl)cn12	-7.7	-1.3	-8.9%	.	-0.6	2.0	-0.6%
Cc1ccccc1NC(=O)c1c(NC(=O)c2ccccc2F)sc2c1CCC(C)C2 (centres undefined)	.	-1.1	.	-0.7%	.	0.0	0.9%
Carrying on.
SMILES	TRPV1 PAM	TRPML1 blocker	Sfp inh	ClpP mod	Menin-MLL FL inh	TRPML1 agonist	PINK1 expr mod
COCCNC(=O)C1(C)CCCN(Cc2csc(-c3ccc(Cl)cc3)n2)C1 (centres undefined)	.	.	.	2.7%	.	-0.8	-0.2%
CN1/C(=C\C(=O)c2cccs2)C(C)(C)c2ccccc21	-16.2	-3.2	-4.2%	1.2%	9.9	2.4	3.6%
COc1ccc(C2=C(C)C(N3CCC(C(=O)Nc4ccccc4F)CC3)=NS2(=O)=O)cc1	.	-4.3	.	-0.8%	.	2.3	11.2%
CCOc1ccc(NC(=O)CN(C)C(=O)c2cc3c(s2)CCC3)cc1OCC	.	5.7	.	-0.8%	.	-0.7	-0.4%
CCOc1ccccc1NC(=O)CSc1c(C)n[nH]c1C	-5.9	2.7	-3.7%	-1.2%	1.4	-1.0	-1.6%
Cc1nc2c(c(C)c1C#N)C(=O)c1ccccc1-2	-17.4	4.0	-17.0%	.	-2.5	0.5	-0.9%
CCCCn1c(SCc2ccccn2)nc2c1c(=O)n(C)c(=O)n2C	-8.8	8.7	4.2%	-1.0%	3.2	-1.1	-1.2%
COc1ccc(CCn2c(-c3ccco3)nc3nc4ccccc4nc32)cc1OC	-2.4	.	-14.4%	.	12.7	.	.
Cc1ccccc1NC(=S)N(CCCN1CCC(C)CC1)Cc1ccco1	3.1	15.8	8.0%	-12.6%	-1.6	0.0	-0.5%
Cc1c(NC(=O)c2ccc(N3CCCC3)c([N+](=O)[O-])c2)cccc1-c1nc2ccccc2s1	-13.1	-16.5	-20.0%	0.0%	-1.5	-0.2	?
COc1ccc(-c2ccnc(-c3ccc(OCCCF)cc3)n2)cc1	15.1	17.0	-27.6%	7.94µM*	2.9	2.1	10.8%
O=C(c1ccncc1)N1CCc2ccccc2C1	2.8	13.1	16.1%	-1.5%	.	0.5	-0.6%
CCCCNC(=O)Oc1cccc(N2CCCC2=O)c1	-2.4	3.6	3.9%	-1.0%	-1.2	-0.3	0.4%
O=C(c1ccc(F)c(S(=O)(=O)N2CCOCC2)c1)N1CCc2ccccc21	-2.3	7.3	6.8%	-0.4%	-2.9	0.3	1.6%
CS(=O)(=O)c1ccc(Cl)c(NC(=O)CCCc2nc3ccccc3c(=O)[nH]2)c1	26.7	-1.8	.	0.7%	.	-1.1	0.8%
